GIV-Gai inh – blocks GIV peptide binding to rat Galpha-i3 | P08753 | Galpha-i3/FITC-GIV peptide fluorescence polarization, 90 min; hits give low values; scaled: aluminum fluoride 0%, vehicle 100% | percent of control (FP), % (test concentration not listed) | 210,000 compounds, 0.42% hits | AID 1224905;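 active = replicate mean at 85% of control or lower, very high polarization wells dropped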;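 note: wells of about 15 µL received 100 nL stock; the first replicate is given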
Target sequence (P08753 whole entry, looked up): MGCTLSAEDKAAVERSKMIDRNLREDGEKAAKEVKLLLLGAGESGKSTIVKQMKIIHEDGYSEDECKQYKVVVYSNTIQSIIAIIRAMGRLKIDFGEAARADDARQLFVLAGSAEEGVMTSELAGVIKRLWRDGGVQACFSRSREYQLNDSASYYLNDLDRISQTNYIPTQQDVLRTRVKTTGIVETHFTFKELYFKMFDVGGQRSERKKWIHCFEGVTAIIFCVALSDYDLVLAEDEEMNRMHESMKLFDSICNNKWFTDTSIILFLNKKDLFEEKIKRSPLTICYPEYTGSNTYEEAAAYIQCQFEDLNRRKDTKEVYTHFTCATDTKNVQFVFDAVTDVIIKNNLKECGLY
* marks the source's active call; other numbers are inactive results.

How did Cc1sc(C)c(S(=O)(=O)N2CCC3(CC2)OCCO3)c1-c1cc(C(F)(F)F)on1 do in these assays?
GIV-Gai inh: 106

Results for COc1cccc(CSc2ccc(S(=O)(=O)N3CCOCC3)cc2C(=O)NCC2CCCO2)c1OC (centres undefined) ?
GIV-Gai inh: 97

How did CCOC(=O)c1ccc(N2C(=O)C(=O)/C(=C(/O)c3ccccc3)C2(O)C(=O)OC)cc1 (centres undefined) do in these assays?
GIV-Gai inh: 110

Results for COc1ccc(C2=N/C(=C\c3cccc(OC)c3OC)C(=O)O2)c(Br)c1 ?
GIV-Gai inh: 103

What do the screens show for `Cc1ccc2c(c1)-c1c(ssc1=S)C(C)(C)N2C(=O)c1cccc([N+](=O)[O-])c1`?
GIV-Gai inh: 110

What do the screens show for `COc1ccccc1Cn1c(=S)[nH]c2cc(C(=O)N3CCN(c4ccccc4)CC3)ccc2c1=O`?
GIV-Gai inh: 104

What do the screens show for `COc1ccc(NC(=O)c2cnn3c(C(F)(F)F)cc(-c4ccc(OC)c(OC)c4)nc23)cc1OC`?
GIV-Gai inh: 114

What do the screens show for `Cc1ccccc1-c1cc2n(C)c(C)c(CCC(=O)Nc3ccc4c(c3)OCCO4)c(=O)n2n1`?
GIV-Gai inh: 110

Results for CC(=O)Nc1ccc(-c2noc(C3CCCN(C(=O)Cc4ccc(F)cc4)C3)n2)cc1 (centres undefined) ?
GIV-Gai inh: 106

Results for CCOC(=O)COc1ccc2c(c1)C(=O)c1cc(OCC(=O)OCC)ccc1-2 ?
GIV-Gai inh: 110

Results for O=c1c2c3c(sc2ncn1Cc1ccc(C(F)(F)F)cc1)CCCC3 ?
GIV-Gai inh: 111

What do the screens show for `COc1ccc(NC(=O)Cn2nc3c4sc(N(C)C)nc4ncn3c2=O)cc1`?
GIV-Gai inh: 99

How did COCCNC(=O)CSc1nc2ccccc2c(=O)n1CCCC(=O)NCCc1ccc(OC)c(OC)c1 do in these assays?
GIV-Gai inh: 109

What do the screens show for `Cc1noc2ncnc(Nc3ccccc3F)c12`?
GIV-Gai inh: 105

Results for O=C(c1ccnc(-c2ccsc2)c1)N1CCN(c2ccccn2)CC1 ?
GIV-Gai inh: 107

What do the screens show for `COc1ccc(/C=C2\C=C(c3ccccc3)N(c3ccc(C)cc3C)C2=O)cc1Br`?
GIV-Gai inh: 128

Results for COc1cccc(NC(=O)Nc2ccc(Nc3nc(C)cc(N4CCCC4)n3)cc2)c1 ?
GIV-Gai inh: 106

What do the screens show for `CCc1ccc(NC(=O)CSc2nc3ccccc3c(=O)n2CC2COc3ccccc3O2)cc1` (centres undefined)?
GIV-Gai inh: 112

What do the screens show for `CCc1nc(-c2csc(S(=O)(=O)Nc3ccc(F)cc3F)c2)no1`?
GIV-Gai inh: 98

Results for CC(C)P(=O)(C(C)C)C(c1cc(C(C)(C)C)c(O)c(C(C)(C)C)c1)N1CCCCC1 (centres undefined) ?
GIV-Gai inh: 105

Entries from the list above that contain fluorine (six):
How did Cc1sc(C)c(S(=O)(=O)N2CCC3(CC2)OCCO3)c1-c1cc(C(F)(F)F)on1 do in these assays?
GIV-Gai inh: 106

What do the screens show for `COc1ccc(NC(=O)c2cnn3c(C(F)(F)F)cc(-c4ccc(OC)c(OC)c4)nc23)cc1OC`?
GIV-Gai inh: 114

Results for CC(=O)Nc1ccc(-c2noc(C3CCCN(C(=O)Cc4ccc(F)cc4)C3)n2)cc1 (centres undefined) ?
GIV-Gai inh: 106

Results for O=c1c2c3c(sc2ncn1Cc1ccc(C(F)(F)F)cc1)CCCC3 ?
GIV-Gai inh: 111

What do the screens show for `Cc1noc2ncnc(Nc3ccccc3F)c12`?
GIV-Gai inh: 105

What do the screens show for `CCc1nc(-c2csc(S(=O)(=O)Nc3ccc(F)cc3F)c2)no1`?
GIV-Gai inh: 98

Continuation.
How did CCOC(=O)CCNC(=O)N1CCCC1c1cc(C)no1 (centres undefined) do in these assays?
GIV-Gai inh: 102

How did Cc1ccc(C(=O)Nc2nc3c(s2)CN(S(=O)(=O)c2ccccc2)CC3)cc1Br do in these assays?
GIV-Gai inh: 103

What do the screens show for `Cc1[nH]c2ccc(-c3nnc(SCC(N)=O)n3-c3ccc(Br)cc3)cc2c1C`?
GIV-Gai inh: 106

How did COc1ccc(N=c2oc3ccc4ccccc4c3cc2-c2nc(-c3ccc(Br)cc3)cs2)cc1 do in these assays?
GIV-Gai inh: 119

How did COCCNC(=O)N1CCCn2nc(-c3ccc(C(F)(F)F)cc3)cc2C1 do in these assays?
GIV-Gai inh: 100

Results for Cc1ccc2c(c1)C1CN(C)CCC1N2S(=O)(=O)c1nc2cc(C)nc(C)n2n1 (centres undefined) ?
GIV-Gai inh: 109

Results for CCc1cc(Sc2ccc(N)cc2)n2ncnc2n1 ?
GIV-Gai inh: 94

What do the screens show for `COc1ccc(C2CC(=O)C3=C(C2)Nc2ccc4ccccc4c2C3c2ccc3c(c2)OCO3)cc1` (centres undefined)?
GIV-Gai inh: 107

Results for Cc1ccc(-c2n[nH]c(CCNS(=O)(=O)c3cc(F)ccc3C)n2)cc1 ?
GIV-Gai inh: 100

How did COc1ccc(/C=C2/c3cc(C)ccc3-c3ncccc32)cc1 do in these assays?
GIV-Gai inh: 122

Results for CC(C)(C)NC(=O)c1ccc2c(c1)CCN2C(=O)C1CC1 ?
GIV-Gai inh: 103

What do the screens show for `COC(=O)c1c(-c2cccc(Cl)c2)noc1N1CCc2ccccc21`?
GIV-Gai inh: 101

How did COc1ccccc1CC(=O)Nc1ccc(-c2noc(-c3ccc(OC)c(OC)c3)n2)cc1 do in these assays?
GIV-Gai inh: 102

What do the screens show for `CC(=O)NC1C(OCc2ccccc2)OC2COC(c3ccccc3)OC2C1O` (centres undefined)?
GIV-Gai inh: 105

How did O=C(CCCCCN1C(=O)C2C3c4ccccc4C(c4ccccc43)C2C1=O)OCC(=O)c1ccc(Br)cc1 (centres undefined) do in these assays?
GIV-Gai inh: 108

How did Cc1cc(-c2cc3ccccc3oc2=O)nc2c1c(=O)oc1ccccc12 do in these assays?
GIV-Gai inh: 113

Results for CCN(CC)C(=O)CN1C(=O)C2(Nc3ccccc3C(=O)N2Cc2ccccc2)c2ccccc21 (centres undefined) ?
GIV-Gai inh: 114

What do the screens show for `CCc1nc(-c2csc(S(=O)(=O)N3CCC(C(=O)N4CCCCC4)CC3)c2)no1`?
GIV-Gai inh: 109

How did Cc1cccc(C2=N/C(=C\c3ccccc3OS(=O)(=O)c3ccccc3)C(=O)O2)c1 do in these assays?
GIV-Gai inh: 106

How did COC(=O)N1CC(=O)N(OCN2C(=O)c3ccccc3C2=O)C1c1ccccc1 (centres undefined) do in these assays?
GIV-Gai inh: 106

What do the screens show for `COc1ccccc1N1CCN(c2nnc(C)c3ccccc23)CC1`?
GIV-Gai inh: 96

Results for Cc1cccc(-n2nnnc2C2(N=Cc3ccc(Cl)cc3Cl)CCCCC2)c1 ?
GIV-Gai inh: 112

How did Cc1ccc(-c2noc(-c3cc(N4CCOCC4)nc4ccccc34)n2)cc1 do in these assays?
GIV-Gai inh: 97

What do the screens show for `COc1ccc(NC2=CC(c3ccc(F)cc3)N(c3ccc(OC)cc3)C2=O)cc1` (centres undefined)?
GIV-Gai inh: 101

How did CCOC(=O)c1c(CNc2ccncc2)n(C)c2cc(Br)c(OC(C)=O)cc12 do in these assays?
GIV-Gai inh: 112

Results for CCC(=O)N1CCc2cc(N3CC(C(=O)Nc4ccc5c(c4)OCCO5)CC3=O)ccc21 (centres undefined) ?
GIV-Gai inh: 105

Results for CC1(C)CC(=O)C2=C(C1)N=C1c3ccccc3C(=O)C1C2c1cccc(Cl)c1Cl (centres undefined) ?
GIV-Gai inh: 113

What do the screens show for `Cc1cc(S(=O)(=O)N2CCN(Cc3nc4cc(C(=O)N5CCCC5)ccc4n3C)CC2)ccc1F`?
GIV-Gai inh: 105

How did c1ccc(Nc2nc(N3CCOCC3)nc3c2cnn3-c2ccccc2)cc1 do in these assays?
GIV-Gai inh: 100

What do the screens show for `COc1ccc(NC(=O)c2ccc3c(c2)N(C)C(=O)c2ccccc2O3)c(OC)c1`?
GIV-Gai inh: 96

How did O=C(CN1C(=O)/C(=C2\SC(=S)N(CCS(=O)(=O)O)C2=O)c2ccccc21)Nc1ccc(F)cc1 do in these assays?
GIV-Gai inh: 110

How did CC(C)(C)C(=O)N1CCCN(Cc2ccccn2)CC1 do in these assays?
GIV-Gai inh: 101

What do the screens show for `CC(C)Cc1ccc(S(=O)(=O)N2CCCC2c2cc(C(C)C)no2)cc1` (centres undefined)?
GIV-Gai inh: 107

What do the screens show for `O=C(CSc1nnc(CNC(=O)c2ccc(S(=O)(=O)N3CCOCC3)cc2)n1-c1ccc(F)cc1)Nc1ccc(F)cc1`?
GIV-Gai inh: 111

What do the screens show for `O=C1CC(c2cccc(Cl)c2Cl)c2ccc3ccccc3c2N1` (centres undefined)?
GIV-Gai inh: 106

How did CCc1ccc(NC(=O)c2sc3nc(N)c(C#N)c(-c4ccc(OC)c(OC)c4)c3c2N)cc1 do in these assays?
GIV-Gai inh: 99

How did O=c1/c(=C/c2ccc3c(c2)OCO3)sc2nc3cccnc3n12 do in these assays?
GIV-Gai inh: 104

How did CC(=O)c1c(C)oc2ccc(N(C(C)=O)S(=O)(=O)c3ccc(C(C)(C)C)cc3)cc12 do in these assays?
GIV-Gai inh: 109

Results for Cc1nnc(-c2c(C)[nH]c(C)c2S(=O)(=O)N2CCN(C(C)C)CC2)o1 ?
GIV-Gai inh: 106

How did CCOc1ccc(CC(=O)N2CCC(c3ccncc3)CC2)cc1OCC do in these assays?
GIV-Gai inh: 98

Results for O=c1c2c(n3nnnc3n1Cc1ccccc1)-c1ccccc1CC21CCCCC1 ?
GIV-Gai inh: 122

What do the screens show for `CN1C(=O)Cc2cc(S(=O)(=O)N3CCC(c4nnc(C(=O)Nc5ccccc5)s4)CC3)ccc21`?
GIV-Gai inh: 108

Results for CCOC(=O)C1=C(c2ccccc2)OC(N)=C(C#N)C1c1ccccc1F (centres undefined) ?
GIV-Gai inh: 106

Results for Cc1ccc(N2C(=O)C3C4c5ccccc5C(C=Nc5cccc(C(=O)O)c5)(c5ccccc54)C3C2=O)cc1 (centres undefined) ?
GIV-Gai inh: 101

Results for O=C(NCCC1=CCCCC1)C1CCCN(c2nn3c(=O)c4c(nc3s2)CCCC4)C1 (centres undefined) ?
GIV-Gai inh: 103

How did O=c1[nH]c2ccc(S(=O)(=O)Nc3ccc(Br)cc3F)cc2[nH]1 do in these assays?
GIV-Gai inh: 99

How did Cc1ccc(C2(O)CN(c3cccc(C)c3C)C3=[N+]2CCCC3)cc1 (centres undefined) do in these assays?
GIV-Gai inh: 108

What do the screens show for `CCOc1ccc(-c2cc3c(=O)n(Cc4nc(-c5ccccc5C)no4)ncn3n2)cc1`?
GIV-Gai inh: 101

Results for Nc1nonc1-n1nnc(C(=O)N/N=C/c2c(Br)sc3ccccc23)c1-c1ccccc1 ?
GIV-Gai inh: 110

What do the screens show for `O=C(O)c1cc(N2C(=O)/C(=C/c3ccc(Cl)cc3)C=C2c2ccccc2)ccc1O`?
GIV-Gai inh: 108

Reprinted at random: 3 records from the list.
How did Cc1ccc(C2(O)CN(c3cccc(C)c3C)C3=[N+]2CCCC3)cc1 (centres undefined) do in these assays?
GIV-Gai inh: 108

What do the screens show for `CCOc1ccc(-c2cc3c(=O)n(Cc4nc(-c5ccccc5C)no4)ncn3n2)cc1`?
GIV-Gai inh: 101

Results for CCOC(=O)C1=C(c2ccccc2)OC(N)=C(C#N)C1c1ccccc1F (centres undefined) ?
GIV-Gai inh: 106

Next section:
What do the screens show for `Cc1ccc2c(c1)/C(=C/c1ccccc1)c1cc3ccccc3nc1-2`?
GIV-Gai inh: 108

What do the screens show for `O=C1Nc2ccccc2NC12CCOCC2`?
GIV-Gai inh: 102

How did Cc1ccc(NS(=O)(=O)c2cc(-c3nc(C(C)C)cs3)cs2)cc1C do in these assays?
GIV-Gai inh: 98

Results for O=C(c1cccs1)N1CCCCC1CCN1CCOCC1 (centres undefined) ?
GIV-Gai inh: 109

What do the screens show for `CN(CC1(C)CCOCC1)S(=O)(=O)c1ccc(Cl)s1`?
GIV-Gai inh: 98

What do the screens show for `Cc1c(C)n(-c2ccccc2)c2nc(C(=O)Nc3ccccc3F)nc(N3CCCC3)c12`?
GIV-Gai inh: 177

What do the screens show for `Cc1csc(-c2cc(S(=O)(=O)Nc3ccc(F)cc3Cl)c(C)s2)n1`?
GIV-Gai inh: 145

What do the screens show for `COc1ccc(CN2CCCC2c2cc(C(C)C)on2)cc1` (centres undefined)?
GIV-Gai inh: 100

Results for CCCN1C(=O)/C(=c2/s/c(=C3\C=Cc4ccccc4N3CC)c(=O)n2-c2ccc(C)cc2)SC1=S ?
GIV-Gai inh: 246

How did Cc1cccc(NC(=O)/C(=C/c2cccc([N+](=O)[O-])c2)NC(=O)c2ccccc2Br)c1 do in these assays?
GIV-Gai inh: 111

What do the screens show for `Cc1ccc(C(=O)N(CCN2CCN(c3ccccc3)CC2)CCS(=O)(=O)N2CCNCC2)cc1`?
GIV-Gai inh: 107

What do the screens show for `CC(=O)c1c(C)nc2c(C#N)c(C)n(-c3ccccc3)c2c1-c1ccccc1`?
GIV-Gai inh: 115

What do the screens show for `COc1ccc(C2Nc3ccc4ncccc4c3C3=C2C(=O)CCC3)c(OC)c1` (centres undefined)?
GIV-Gai inh: 103

What do the screens show for `COc1ccc(CCNC(=O)CCCn2c(SCC(=O)NCc3ccccc3)nc3ccccc3c2=O)cc1OC`?
GIV-Gai inh: 112

What do the screens show for `Cc1cc(C)cc(-n2ncc3c(N4CCN(C)CC4)ncnc32)c1`?
GIV-Gai inh: 96

How did COC(=O)c1c(-c2ccc(F)cc2)noc1NC1CCCC1 do in these assays?
GIV-Gai inh: 107

How did O=C(Nc1ccc(F)cc1)/C(=C/c1cccc([N+](=O)[O-])c1)NC(=O)c1ccccc1Br do in these assays?
GIV-Gai inh: 108

How did O=C1CSC(c2cccc(C(F)(F)F)c2)N1c1ccc(Br)cc1 (centres undefined) do in these assays?
GIV-Gai inh: 106

What do the screens show for `Cc1ccc(NC(=O)c2cc(S(=O)(=O)NCCC3=CCCCC3)ccc2F)cc1`?
GIV-Gai inh: 103

What do the screens show for `Cc1cc(=O)oc2c1ccc1occ(Nc3ccccc3)c12`?
GIV-Gai inh: 106

Screens: PubChem, ICCB-Longwood Screening Facility, Harvard Medical School

The list is partial. The share of hits here may be higher or lower than overall.
